Screens from PubChem BioAssay.
Arbovirus inh – arbovirus infection inhibition; arbovirus infection cell-based antiviral screen; inhibition, % at 10 µM; 200,000 tested, 0.37% active;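 active = inhibition from about 30%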;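 also: bluetongue infection of BSR cells; cell survival read as ATP light after 72 h; 0% = infected wells without compound and 100% = uninfected wells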
Mtb H37Rv – M. tuberculosis H37Rv growth inhibitors, H37Rv strain (AID 1626). M. tuberculosis H37Rv growth inhibition; higher % means a stronger effect. inhibition, % at 10 µM, or IC50 in µM where a hit was titrated. 220,000 tested, 0.95% active;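 active = confirmed in a dose series; inconclusive = inhibition above 80% but not taken into the dose series; inactive = below 80% or under 30% at every dose of the series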;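 also: bacteria incubated seven days before Alamar blue readout; 0% = bacteria only wells and 100% = bacteria with antibiotic wells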
RecA splice inh – inhibitors of M. tuberculosis RecA intein splicing | inhibition, %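 (about 9 µM by stock and volumes)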 | P9WHJ3 | 290,000 tested, 0.75% active | AID 2221 | cell-free RecA intein splicing, fluorescence; in the data active = inhibition above about 30%; inconclusive = no clear call, values can overlap the other calls;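 also: 0% = vehicle wells and 100% = reference inhibitor control wells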
Target sequence (P9WHJ3 whole entry, looked up, canonical isoform): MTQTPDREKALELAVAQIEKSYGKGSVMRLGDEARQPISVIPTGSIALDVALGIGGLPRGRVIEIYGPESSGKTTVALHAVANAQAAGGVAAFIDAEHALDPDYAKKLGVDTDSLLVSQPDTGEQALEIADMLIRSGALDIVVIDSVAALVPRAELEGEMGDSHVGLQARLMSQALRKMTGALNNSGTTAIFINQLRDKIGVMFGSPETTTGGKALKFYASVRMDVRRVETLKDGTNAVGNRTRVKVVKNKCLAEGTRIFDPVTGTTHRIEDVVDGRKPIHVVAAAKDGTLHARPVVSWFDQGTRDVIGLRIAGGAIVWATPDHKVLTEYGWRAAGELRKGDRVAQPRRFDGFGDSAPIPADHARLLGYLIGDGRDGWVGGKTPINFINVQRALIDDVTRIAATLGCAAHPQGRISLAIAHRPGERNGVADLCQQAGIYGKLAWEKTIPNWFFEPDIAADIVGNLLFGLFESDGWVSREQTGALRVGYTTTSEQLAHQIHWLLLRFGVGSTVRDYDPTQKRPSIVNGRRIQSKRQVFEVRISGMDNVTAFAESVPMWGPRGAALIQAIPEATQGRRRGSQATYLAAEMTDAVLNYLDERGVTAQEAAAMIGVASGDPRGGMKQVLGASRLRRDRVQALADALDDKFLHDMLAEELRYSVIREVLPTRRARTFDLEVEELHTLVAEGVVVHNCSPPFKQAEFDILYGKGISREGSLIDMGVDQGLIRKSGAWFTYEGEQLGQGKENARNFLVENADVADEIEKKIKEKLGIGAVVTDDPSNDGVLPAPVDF
Mtb betalactam – beta-lactam sensitization of Mtb H37Rv; M. tuberculosis H37Rv growth with meropenem, percent inhibition; hits of this screen are not shown here; inhibition, % at 25 µM; 330,000 tested, 0.27% active;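 active = about 74% or more and at least 40 points above the plate without the antibiotic, then above 30% in a dose series; inconclusive = first-round hits that could not be retested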;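 also: growth measured after seven days incubation then overnight dye step; 0% = bacteria only wells and 100% = bacteria with antibiotic; twin plates without the antibiotic show which effects depend on it; some results filed as inactive read as strong as hits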
YopH inh – inhibitors of Yersinia enterocolitica YopH tyrosine phosphatase; 140,000 tested, 0.16% active; fluorescence Ex485/Em525; inhibition, %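 (about 10 µM by stock and volumes)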;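 active = inhibition of 50% or more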;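 also: controls were vehicle for no effect and minimum signal wells for full effect; inactives centre near -20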
* hit, by the source's call; ? = inconclusive; . = no result given. Only part of the results is shown; rates above refer to the full screens.

SMILES	Arbovirus inh	Mtb H37Rv	RecA splice inh	Mtb betalactam	YopH inh
Cc1ccc(-c2cc(C(=O)OC3CCOC3=O)c3ccccc3n2)c(C)c1 (stereo not given)	3	2%	1.4	-4	.
COc1ccccc1N1CCN(C(c2cccs2)C(C)NC(=O)c2ccncc2)CC1 (stereo not given)	.	-5%	4.0	1	.
COC(=O)c1cc2n(n1)CCN(Cc1ccc(C)cc1)C2=O	4	8%	1.0	-3	-33
OCCCn1c(-c2ccccc2)csc1=Nc1ccccc1	-9	5%	2.9	7	.
Cc1cccc(Cn2nc(-n3cccc3)c3c(C)cc(C)nc32)c1	10	16%	13	5	.
O=C(CCC1CCCCC1)Nc1ccc(C(=O)c2ccncc2)cc1	-8	5%	1.7	3	.
CC(C)CC(=O)NC(=S)Nc1cccc2nsnc12	6	0%	5.3	.	.
Cc1ccc(C(=O)NC(=S)N2CCN(c3ccccc3F)CC2)cc1	4	?	0.5	19	-14
Cc1cc(NC(=O)CCNS(=O)(=O)c2ccc3[nH]c(=O)oc3c2)ccc1Br	.	.	-1.3	4	.
c1ccc(OCCCCN2CCOCC2)cc1	-2	-9%	-1.5	-5	-8
CCCOc1ccc(-c2c(C(=O)N/N=C/c3ccc(C)o3)nnn2-c2nonc2N)cc1	.	.	-1.0	5	.
O=C(NC1CCCC1)C(c1cccnc1)N(C(=O)c1ccco1)c1cccc(F)c1 (stereo not given)	.	.	-5.3	-10	.
CN(C)C(CNC(=O)c1cnc(Cl)c(Cl)c1)c1ccccc1 (stereo not given)	.	.	-0.7	-9	.
Cc1c(NC(=O)C(Sc2ccccc2)c2ccccc2)cccc1[N+](=O)[O-] (stereo not given)	-4	.	2.2	2	-19
CC(=O)Nc1ccc(S(=O)(=O)N2CCC(c3nc4ccccc4[nH]3)CC2)cc1	-3	6%	-0.7	2	-11
C/C(=N/OC(=O)C1CC1)c1cc(-c2ccc(Cl)cc2)no1	-15	8%	.	44	.
CCC1Oc2ccccc2N(CC(=O)NCCC2=CCCCC2)C1=O (stereo not given)	0	-9%	1.1	-3	-3
CCN(CC)S(=O)(=O)N1CCC(C(=O)NCc2ccc3c(c2)OCO3)CC1	0	-5%	-2.5	-2	-14
CCN1/C(=c2/s/c(=C3/C(=O)N(c4ccccc4)N=C3C)n(CC)c2=O)C=Cc2ccccc21	.	.	0.7	-8	.
CC1CCCC(C)N1C(=O)c1ccc(CS(=O)(=O)c2ccccc2)cc1 (stereo not given)	.	.	2.0	-12	.
COc1cc(OC)cc(C(=O)N[C@H](C(=O)Nc2nc(-c3ccc(OC)c(OC)c3)cs2)C(C)C)c1	.	3%	0.4	34	.
O=C(O)C1=NN(c2ccccc2)C(=O)CC1	.	.	0.1	-2	.
C[C@H](NC(=O)c1nc[nH]c1C(=O)N[C@@H](C)c1ccccc1)C(=O)OC(C)(C)C	1	-5%	1.0	5	.
O=C(COC(=O)c1ccccc1C(=O)c1ccc(Cl)cc1)NCCc1ccccc1	14	0%	28	-3	-28
COC(=O)[C@H](Cc1ccccc1)NC(=O)NCC1CCCO1 (stereo not given in full)	5	-3%	0.2	-10	2
Cc1ccc(NC(=O)C2CCN(C(=O)c3ccco3)CC2)cc1	.	.	-2.1	5	.
CCCCCCC(=O)N/N=C/Cc1ccccc1	-4	10%	4.9	-1	-8
O=C(CSc1ncccn1)N/N=C/c1cccc(OC2CSC2)c1	-8	2%	-2.6	3	.
CN1C(=S)SC(/[N+]([O-])=C/c2c(F)cccc2Cl)C1(C)C (stereo not given)	.	-17%	-0.7	-3	.
CCCCOc1c(Br)cc(/C=C2\N=C(C)OC2=O)cc1OCC	1	6%	-2.9	60	-14

Complete entries, quoted from the list. Screens in order: Arbovirus inh | Mtb H37Rv | RecA splice inh | Mtb betalactam | YopH inh
Results for `O=C(O)C1=NN(c2ccccc2)C(=O)CC1` → . | . | 0.1 | -2 | .
Results for `O=C(COC(=O)c1ccccc1C(=O)c1ccc(Cl)cc1)NCCc1ccccc1` → 14 | 0% | 28 | -3 | -28
Results for `CN1C(=S)SC(/[N+]([O-])=C/c2c(F)cccc2Cl)C1(C)C` (stereo not given) → . | -17% | -0.7 | -3 | .
Results for `C[C@H](NC(=O)c1nc[nH]c1C(=O)N[C@@H](C)c1ccccc1)C(=O)OC(C)(C)C` → 1 | -5% | 1.0 | 5 | .

Later entries.
SMILES	Arbovirus inh	Mtb H37Rv	RecA splice inh	Mtb betalactam	YopH inh
CCc1nc2ccc(C(=O)N3CCN(c4ccccc4)CC3)cc2nc1CC	.	.	-1.0	1	.
Cc1ccccc1NC(=O)c1sc(NC(=O)COc2ccccc2)c(C#N)c1C	-10	6%	-0.2	-7	-28
Cc1ccc(C2=NN(C(=O)C3CCCO3)C(c3ccco3)C2)cc1 (stereo not given)	-15	8%	1.9	10	.
CCOC(=O)C1=C(COC(=O)CNC(=O)c2cc(OC)c(OC)c(OC)c2)NC(=O)NC1C (stereo not given)	.	.	0.0	-4	.
O=C(Cn1c2ccc(F)cc2c2nc3n(c(=O)c21)CCS3)N1CCCC1	.	.	0.2	-11	.
O=C(NN1C(=O)c2cc(Br)ccc2NC1c1cc(Br)cc(Br)c1O)c1ccncc1 (stereo not given)	-4	11%	-0.8	1	-23
O=C(CN1CCOCC1)NC1CC2CCC1C2 (stereo not given)	-1	1%	0.9	-23	36
CC(=O)Nc1ccc(N(C(=O)c2ccco2)C(C(=O)NC2CCCC2)c2ccc(N(C)C)cc2)cc1 (stereo not given)	.	.	-1.3	3	.
COc1ccc(CNC(=O)Cn2nc(-c3ccc4c(c3)OCCO4)ccc2=O)cc1	-7	-2%	-2.7	-5	-41
Cc1cc(=O)[nH]c(-c2cccnc2)n1	7	-3%	-3.0	-1	.
Brc1cccc(/C=N/Nc2nc(N3CCCCC3)nc(N3CCCCC3)n2)c1	-7	3%	-2.5	-1	.
CCOC(=O)/C=c1\s/c(=C\c2ccc(C(F)(F)F)cc2)c(=O)n1CC(=O)NCc1ccco1	-13	-18%	3.0	6	-21
CC1CCCN(Cc2c(O)ccc3c4c(c(=O)oc23)CCCC4)C1 (stereo not given)	.	-1%	-57	-5	.
COC(=O)C1=C(SC)N(c2ccccc2)C(c2ccccc2)CC1=O (stereo not given)	5	-2%	0.4	-1	-6
O=C1N(Cc2ccccc2)c2ccccc2C12OCCO2	.	.	2.3	5	.
O=C(NCCO)C(=O)Nc1cc2c3c(c1)CC(=O)N3CCC2	.	.	21	0	.
Cc1cc(C)n(CC(=O)N2CCCC(N3CCN(c4ccccc4C)CC3)C2)n1 (stereo not given)	.	.	0.2	?	.
N#CCOc1ccc2oc(-c3ccco3)cc(=O)c2c1	3	7%	.	-5	.
Cc1ccc(/C(O)=C2/C(=O)C(=O)OC2c2ccc(Cl)cc2)cc1 (stereo not given)	7	-13%	-0.7	-7	-48
CCOc1ccc(OCCOC(=O)CN(C)S(=O)(=O)c2ccc(NC(C)=O)cc2)cc1	.	.	0.0	3	.
O=C1C(Cl)=C(Nc2ccc(F)cc2)C(=O)N1CCc1ccccc1	0	11%	0.1	2	-12
Cc1ccc(-c2cnn(-c3cccc([N+](=O)[O-])c3)c2N)cc1	-7	0%	0.3	-5	-40
O=C(/C=C\N1CCOCC1)c1ccc(Br)cc1	.	.	-0.3	-6	.
COc1ccc(OC)c(N(CC(=O)N2CCN(Cc3ccccc3)CC2)S(C)(=O)=O)c1	.	.	2.0	-12	.
O=C(O)c1ccccc1NC(=O)N1CCOCC1	-6	-1%	-1.9	2	.
COc1ccc(-n2c(COc3cccc4ccccc34)nnc2SCC#N)cc1	-22	6%	.	-3	-1
CN(C)S(=O)(=O)c1ccc(C(=O)OCC(=O)Nc2cccnc2Cl)cc1	2	-4%	-0.9	-14	.
Cc1ccc(NC(=O)NN2CCOCC2)cc1	4	-3%	0.6	-2	.
CCC1(c2ccccc2)NC(=O)N(CC(=O)Nc2ccc(S(=O)(=O)Nc3ncccn3)cc2)C1=O (stereo not given)	.	.	-2.7	0	.
C/C(=N\NC(=O)c1ccc(Cl)cc1)c1cccs1	1	?	0.5	.	.
CC1=Nc2ccc(Br)cc2C(c2ccccc2)N1CC(=O)NN (stereo not given)	6	5%	5.2	-3	.
COCCn1c(N)c(Sc2ccc(C)cc2)c(=O)[nH]c1=O	.	.	2.0	-4	.
Cc1cccc(N(CC(=O)N2CCN(c3ccccc3F)CC2)S(C)(=O)=O)c1	1	5%	1.9	-5	.
CN(C)S(=O)(=O)N1CCC(Oc2cccc(C(=O)N3CCSCC3)c2)CC1	.	.	-1.2	-18	.
N#C/C(=C\c1c(Oc2ccccc2F)nc2ccccn2c1=O)C(=O)NC1CCS(=O)(=O)C1 (stereo not given)	.	.	-175	-2	.
COCCn1c(SCC(=O)Nc2ccc(F)cc2)nc2ccccc2c1=O	.	.	1.6	1	.
O=C(NS(=O)(=O)Oc1ccc(F)c(Cl)c1)OC[C@@H]1CCCN2CCCCC12 (stereo not given in full)	1	8%	-0.6	-2	.
CC(C)CCNC(=O)CN(C(=O)CCC(=O)Nc1ccccn1)c1ccc2c(c1)OCCO2	6	0%	-0.1	-8	-76
C/C(=N\NC(=O)CN(c1ccccc1Br)S(C)(=O)=O)c1cccs1	-6	-5%	-0.7	-5	.
COC(F)(C(=O)Nc1ccc2c(c1)C(=O)NC2=O)C(F)(F)F (stereo not given)	1	-1%	-1.9	-19	-17
C=C1CCN(c2ccc(C(=O)NCc3ccc(C)cc3)cc2[N+](=O)[O-])CC1	.	.	-0.6	33	.
COc1cc(NC(=O)Nc2ccccc2)c(OC)cc1NC(=O)CN1CCCCC1	-10	-7%	0.5	68	-27
CCC(=O)Nc1ccc(-c2nnc(SCC(=O)Nc3nccs3)n2C)cc1	-1	5%	1.2	-16	-15
CC(=O)Nc1ccc(N2C(=O)CSC2c2c(F)cccc2Cl)cc1 (stereo not given)	-8	-7%	0.7	6	2
O=C(c1ccc(Cl)c([N+](=O)[O-])c1)N(Cc1cccc(Cl)c1)C1CCS(=O)(=O)C1 (stereo not given)	-2	0%	-2.1	-2	-24
CCN(CC)CCn1c(NCc2ccccn2)nc2ccccc21	1	-4%	-0.3	-15	-24

Quoted at random: 5 records from the list.
SMILES	Arbovirus inh	Mtb H37Rv	RecA splice inh	Mtb betalactam	YopH inh
CCN(CC)CCn1c(NCc2ccccn2)nc2ccccc21	1	-4%	-0.3	-15	-24
CCC(=O)Nc1ccc(-c2nnc(SCC(=O)Nc3nccs3)n2C)cc1	-1	5%	1.2	-16	-15
O=C(c1ccc(Cl)c([N+](=O)[O-])c1)N(Cc1cccc(Cl)c1)C1CCS(=O)(=O)C1 (stereo not given)	-2	0%	-2.1	-2	-24
CC(=O)Nc1ccc(N2C(=O)CSC2c2c(F)cccc2Cl)cc1 (stereo not given)	-8	-7%	0.7	6	2
C=C1CCN(c2ccc(C(=O)NCc3ccc(C)cc3)cc2[N+](=O)[O-])CC1	.	.	-0.6	33	.
